Screening data (PubChem BioAssay)
Yeast UUG start – alters start codon recognition fidelity in yeast. S. cerevisiae UUG-firefly luciferase reporter, luminescence/redox ratio. activity score, % at 18.7 µM. actives 0.13% (n = 350,000). AID 602363;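 active = replicate mean at a twofold rise or more, about +100% in these data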;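 also: firefly luciferase made from a UUG start codon reports start codon fidelity; reporter light over untreated wells divided by growth signal over untreated wells; some hits fall short of that in this replicate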
The depositor's hits bear a star.

SMILES	Yeast UUG start
O=C(C[C@@H]1CC[C@@H]2[C@H](COC[C@@H](O)CN2Cc2nccs2)O1)NCc1ccc(Cl)cc1	-13
C[C@H](CO)N1C[C@H](C)[C@H](CN(C)S(=O)(=O)c2ccc(F)cc2)Oc2ccc(NC(=O)Nc3ccc4c(c3)OCO4)cc2C1=O	-10
COCC(=O)N1CCCCN2[C@H](CO)[C@@H](c3ccc(-c4ccc(F)cc4)cc3)[C@H]2C1	2
COCCNC(=O)C[C@@H]1CC[C@H]2[C@H](COc3ccc(NC(=O)c4cnccn4)cc3C(=O)N2C)O1	1
CCC(=O)N1CCCCN2[C@@H](CO)[C@H](c3ccc(C#CCOC)cc3)[C@@H]2C1	7
O=C(C1CC1)N1CCCCN2[C@H](CO)[C@H](c3ccc(-c4cccc(F)c4)cc3)[C@@H]2C1	14
CCCNC(=O)N1[C@H](CNC(C)=O)[C@H](c2ccc(-c3ccccc3)cc2)[C@@H]1CO	5
COc1ccc(NC(=O)N2C[C@H]3[C@@H](c4ccccc42)[C@H](CO)N3C(=O)C2CCCCC2)cc1	14
C[C@@H]1CN([C@@H](C)CO)C(=O)c2cc(NC(=O)CCC(F)(F)F)ccc2O[C@@H]1CN(C)S(=O)(=O)c1ccccc1	-99
CO[C@@H]1CN(C)C(=O)c2ccc(NC(=O)C3CCC3)cc2OC[C@H](C)N(Cc2cccnc2)C[C@H]1C	-8
CN1C(=O)c2cc(NC(=O)c3ccc(Cl)cc3)ccc2OC[C@@H]2O[C@@H](CC(=O)NCc3cccc(F)c3)CC[C@H]21	-4
CCS(=O)(=O)Nc1ccc2c(c1)C(=O)N(C)C[C@H](OC)[C@H](C)CN(CC1CCCCC1)[C@@H](C)CO2	-7
O=C(C[C@@H]1CC[C@@H]2[C@H](COC[C@H](O)CN2C(=O)c2ccccc2F)O1)NCc1ccc(F)cc1	11
CC(C)NC(=O)N(C)C[C@H]1Oc2c(NC(=O)Nc3ccc(F)cc3)cccc2C(=O)N([C@@H](C)CO)C[C@@H]1C	-1
CC(C)N(C[C@H]1N[C@H](CO)[C@H]1c1ccccc1)S(=O)(=O)c1ccccc1	-13
CC(C)[C@@H](C)NC(=O)N(C)C[C@H]1OCc2ccccc2-c2c(n(C)c3ccccc23)C(=O)N([C@H](C)CO)C[C@H]1C	3
C[C@H]1CN([C@@H](C)CO)C(=O)c2cc(NC(=O)Nc3cccc4ccccc34)ccc2O[C@@H]1CN(C)Cc1ccc(C(=O)Nc2ccccc2N)cc1	-12
CC(C)NC(=O)Nc1cccc2c1O[C@@H](CN(C)C(=O)Nc1ccc3c(c1)OCO3)[C@@H](C)CN([C@H](C)CO)C2=O	1
CO[C@@H]1CN(C)C(=O)c2ccc(NC(=O)Nc3cc(F)ccc3F)cc2OC[C@@H](C)N(C(=O)c2ccccn2)C[C@H]1C	-2
C[C@H]1CN([C@@H](C)CO)C(=O)c2cccc(NC(=O)Nc3cccc4ccccc34)c2O[C@H]1CN(C)Cc1ccc(Oc2ccccc2)cc1	2
COc1cccc(C(=O)Nc2ccc3c(c2)C(=O)N(C)[C@@H]2CC[C@H](CC(=O)NCc4ccccc4F)O[C@H]2CO3)c1	11
COc1ccc(C#Cc2ccc([C@H]3[C@@H](CO)N4CCCCN(C(=O)Nc5cccc(F)c5)C[C@@H]34)cc2)cc1	18
CN1CCCCN2[C@H](CO)[C@@H](c3ccc(-c4ccccc4)cc3)[C@H]2C1	-7
O=S(=O)(c1ccccc1F)N1CCCCN2[C@@H](CO)[C@@H](c3ccc(-c4ccccc4)cc3)[C@@H]2C1	32
Cc1ccccc1-c1ccc([C@H]2[C@H]3CN(S(=O)(=O)Cc4ccccc4)CCCCN3[C@H]2CO)cc1	6
New compounds follow
SMILES	Yeast UUG start
COCC(=O)Nc1ccc2c(c1)C(=O)N(C)[C@H]1CC[C@@H](CC(=O)NCC3CCCCC3)O[C@H]1CO2	2
OC[C@H]1[C@@H](c2ccc(C#CC3(O)CCCC3)cc2)[C@H]2CN(Cc3cccnc3)CCCCN21	1
CCC(=O)N1CCCCN2[C@H](C1)[C@H](c1ccc(-c3cccnc3)cc1)[C@@H]2CO	3
CC(=O)N(C)C[C@H]1OCc2ccccc2-c2c(n(C)c3ccccc23)C(=O)N([C@@H](C)CO)C[C@H]1C	4
CCCNC(=O)C[C@@H]1CC[C@@H]2[C@H](COC[C@H](O)CN2C(=O)c2ccccn2)O1	-16
COc1cccc(NC(=O)N2[C@@H](CO)[C@H](c3ccccc3)[C@@H]2CNC(C)C)c1	-6
C[C@@H]1CN([C@@H](C)CO)C(=O)Cc2cc(NC(=O)Nc3ccc(C(F)(F)F)cc3)ccc2O[C@H]1CN(C)Cc1ccncc1	7
CO[C@H]1CN(C)C(=O)c2cc(NC(=O)NC(C)C)ccc2OC[C@@H](C)N(Cc2ccccn2)C[C@H]1C	-14
COCC(=O)Nc1ccc2c(c1)[C@@H]1C[C@@H](CC(=O)OC)O[C@H](CO)[C@@H]1O2	-16
CN1CCN(C(=O)C[C@@H]2CC[C@H]3[C@@H](COC[C@@H](O)CN3Cc3cccc(-c4ccncc4)c3)O2)CC1	-11
Cc1noc(C)c1S(=O)(=O)Nc1cccc2c1O[C@@H](CN(C)C(=O)Nc1ccc(F)cc1)[C@@H](C)CN([C@H](C)CO)C2=O	1
Nc1nc2c(ncn2[C@@H]2O[C@H](CNS(=O)(=O)C3CC3)[C@@H](O)[C@H]2O)c(=O)[nH]1	-15
CN1CCN(C(=O)C[C@H]2CC[C@H]3[C@@H](COC[C@H](O)CN3C(=O)Nc3cc(Cl)cc(Cl)c3)O2)CC1	-2
COc1ccc(NC(=O)N2CCCCN3[C@H](CO)[C@@H](c4ccc(C#CCC(C)C)cc4)[C@H]3C2)cc1	17
O=C(C[C@H]1CC[C@H]2[C@@H](COC[C@H](O)CN2Cc2cc(F)cc(F)c2)O1)NCc1cccc(F)c1	19
O=S(=O)(c1ccccc1F)N1CC[C@@H]2[C@H](CO)Nc3ccc(C4=CCCCC4)cc3[C@@H]21	5
CO[C@H]1CN(C)C(=O)c2cc(NC(=O)Nc3ccccc3)ccc2OC[C@@H](C)N(CC2CC2)C[C@@H]1C	4
O=C(Nc1ccc(F)cc1)N1C[C@H]2[C@@H](c3ccccc31)[C@@H](CO)N2C(=O)Cc1ccccn1	21
CCCC(=O)Nc1ccc2c(c1)C(=O)N(C)C[C@@H](OC)[C@@H](C)CN(CCc1ccccc1)[C@H](C)CO2	10
CC(C)(O)C#Cc1ccc([C@@H]2[C@@H](CO)N3CCCCN(C(=O)c4cccnc4)C[C@@H]23)cc1	-10
COc1cccc(S(=O)(=O)N2CCCCN3[C@H](CO)[C@H](c4ccc(C#CCC(C)C)cc4)[C@@H]3C2)c1	4
CC=Cc1ccc2n(c1=O)C[C@@H]1[C@@H](CO)[C@H](C(=O)NCc3ccccc3F)N(CC)[C@H]21 (mixture of isomers)	16
COc1ccc(S(=O)(=O)N(C)C[C@@H]2Oc3ccc(NC(=O)Cc4ccccc4)cc3CC(=O)N([C@H](C)CO)C[C@H]2C)cc1	-4
CCC(=O)Nc1ccc2c(c1)C(=O)N(C)C[C@H](OC)[C@@H](C)CN(C(=O)CC1CC1)[C@H](C)CO2	-4
COc1ccc(-c2ccc3c(c2)[C@@H]2[C@@H](CCN2S(=O)(=O)C2=NC(C)C=N2)[C@@H](CO)N3C)cc1 (stereo not given in full)	-14

Copied from the list:
COc1ccc(S(=O)(=O)N(C)C[C@@H]2Oc3ccc(NC(=O)Cc4ccccc4)cc3CC(=O)N([C@H](C)CO)C[C@H]2C)cc1 in Yeast UUG start: -4
COc1ccc(-c2ccc3c(c2)[C@@H]2[C@@H](CCN2S(=O)(=O)C2=NC(C)C=N2)[C@@H](CO)N3C)cc1 (stereo not given in full) in Yeast UUG start: -14
CC=Cc1ccc2n(c1=O)C[C@@H]1[C@@H](CO)[C@H](C(=O)NCc3ccccc3F)N(CC)[C@H]21 (mixture of isomers) in Yeast UUG start: 16

(continued)
SMILES	Yeast UUG start
COc1cccc(NC(=O)C[C@@H]2CC[C@@H]3[C@@H](COc4ccc(NC(=O)c5ccccc5F)cc4C(=O)N3C)O2)c1	2
O=C(C[C@H]1CC[C@@H]2[C@H](COC[C@@H](O)CN2Cc2cccc(Cl)c2)O1)N1CCOCC1	-9
CC(=O)NC[C@H]1[C@H](c2ccc(-c3ccccc3)cc2)[C@H](CO)N1C(=O)C1CC1	-2
O=C(NC[C@H]1[C@H](c2ccccc2)[C@@H](CO)N1C(=O)C1CCC1)NC1CCCC1	3
O=C(c1ccc(F)cc1)N1CC[C@@H]2[C@H](CO)Nc3ccc(-c4ccccc4F)cc3[C@@H]21	-20
O=C(c1cccc(F)c1)N1CC[C@H]2[C@H](CO)Nc3ccc(-c4ccc(F)cc4)cc3[C@H]21	9
CCC(=O)Nc1ccc2c(c1)C(=O)N(C)C[C@H](OC)[C@@H](C)CN(C(=O)C1CC1)[C@H](C)CO2	-2
O=C(c1ccccc1)N1C[C@H]2[C@@H](c3ccccc31)[C@@H](CO)N2C(=O)c1ccccn1	-11
CCN(C[C@@H]1[C@@H](c2ccccc2)[C@@H](CO)N1C(=O)COC)S(C)(=O)=O	2
CCCC(=O)N1C[C@@H]2[C@H](c3ccccc31)[C@@H](CO)N2C(=O)Nc1ccccc1	26
COc1ccc(-c2ccc([C@H]3[C@@H](CO)N4CCCCN(CC5CCOCC5)C[C@H]34)cc2)cc1	-1
C[C@H]1CN([C@@H](C)CO)C(=O)c2cc(NS(=O)(=O)c3cn(C)cn3)ccc2O[C@H]1CN(C)Cc1ccc(C(=O)Nc2ccccc2N)cc1	-2
CC(=O)NC[C@H]1[C@H](c2ccc(C3=CCCCC3)cc2)[C@H](CO)N1C(=O)NC(C)C	-1
CCC(=O)N1C[C@@H]2[C@H](c3ccccc31)[C@@H](CO)N2Cc1cc(F)ccc1F	-10
COc1ccc(S(=O)(=O)Nc2cccc3c2O[C@H](CN(C)C(=O)Nc2c(C)noc2C)[C@H](C)CN([C@@H](C)CO)C3=O)cc1	7
C[C@@H]1CN([C@H](C)CO)C(=O)c2cc(NC(=O)Cn3cnnn3)ccc2O[C@@H]1CN(C)C	-8
N#Cc1ccc(-c2ccc([C@H]3[C@H](CO)N4CCCCN(C(=O)Nc5ccc(F)cc5)C[C@@H]34)cc2)cc1	-4
C/C=C/c1ccc([C@@H]2[C@@H](CO)N(C(=O)c3ccccc3)[C@@H]2CNC(C)C)cc1	-10
C[C@@H]1CN([C@@H](C)CO)C(=O)c2cccc(N(C)C)c2O[C@H]1CN(C)C(=O)Nc1ccc(F)cc1	5
O=C(CC(F)(F)F)N1C[C@H]2[C@@H](c3ccccc31)[C@@H](CO)N2CC1CCOCC1	25
C[C@H]1CN([C@@H](C)CO)C(=O)c2cc(NC(=O)Nc3ccccc3)ccc2O[C@@H]1CN(C)CC1CCCCC1	12
CCNC(=O)C[C@H]1CC[C@@H]2[C@H](COC[C@@H](O)CN2Cc2ccccc2F)O1	0
CCCNC(=O)N1CC[C@@H]2[C@H]1c1cc(-c3ccc(F)cc3)ccc1N(C)[C@H]2CO	1
CN1C(=O)c2cc(NC(=O)NCc3ccccc3)ccc2OC[C@@H]2O[C@@H](CC(=O)NCC3CCCCC3)CC[C@@H]21	-11
CCC(=O)Nc1ccc2c(c1)OC[C@@H](C)N(CC1CC1)C[C@H](C)[C@@H](OC)CN(C)C2=O	-5

A second format for part of the listing above.
compound: CCNC(=O)C[C@H]1CC[C@@H]2[C@H](COC[C@@H](O)CN2Cc2ccccc2F)O1
  Yeast UUG start: 0
compound: C[C@H]1CN([C@@H](C)CO)C(=O)c2cc(NC(=O)Nc3cccc4ccccc34)ccc2O[C@@H]1CN(C)Cc1ccc(C(=O)Nc2ccccc2N)cc1
  Yeast UUG start: -12

Going on with the list.
SMILES	Yeast UUG start
CN1C(=O)c2cc(NC(=O)Nc3ccccc3F)ccc2OC[C@@H]2O[C@H](CC(=O)NCc3ccc(-c4ccccc4)cc3)CC[C@@H]21	-14
O=C(C[C@H]1CC[C@@H]2[C@H](COC[C@@H](O)CN2Cc2cccc(Cl)c2)O1)NCc1cccc(F)c1	-1
CCC(=O)N1CC[C@@H]2[C@H]1c1cc(-c3cccc(OC)c3)ccc1N(C)[C@H]2CO	4
C[C@H]1CN([C@@H](C)CO)C(=O)c2cc(NC(=O)Cc3ccccc3)ccc2O[C@H]1CN(C)S(=O)(=O)c1ccc(F)cc1	9
C[C@@H]1CN([C@@H](C)CO)C(=O)c2cccc(NS(C)(=O)=O)c2O[C@@H]1CN(C)S(=O)(=O)c1cccs1	11
C[C@H](CO)N1C[C@H](C)[C@@H](CN(C)C(=O)Oc2ccccc2)OCc2ccccc2-c2ccccc2C1=O	1
COCC(=O)N1CC[C@H]2[C@@H]1c1cc(-c3cccc(OC)c3)ccc1N(C)[C@H]2CO	-2
CO[C@@H]1CN(C)C(=O)c2cc(NC(C)=O)ccc2OC[C@@H](C)N(Cc2ccc(F)cc2)C[C@@H]1C	2
COC(=O)C[C@H]1CC[C@@H]2[C@@H](COc3ccc(NC(=O)C4CCOCC4)cc3C(=O)N2C)O1	5
CC(C)NC(=O)N(C)C[C@@H]1Oc2c(NS(=O)(=O)c3ccccc3)cccc2C(=O)N([C@H](C)CO)C[C@H]1C	-3
CNC(=O)C[C@H]1CC[C@H]2[C@@H](COC[C@H](O)CN2S(=O)(=O)c2ccc(Oc3ccccc3)cc2)O1	9

6 of the compounds above, bar-delimited:
Structure | Yeast UUG start
C[C@H](CO)N1C[C@H](C)[C@@H](CN(C)C(=O)Oc2ccccc2)OCc2ccccc2-c2ccccc2C1=O | 1
COCC(=O)N1CC[C@H]2[C@@H]1c1cc(-c3cccc(OC)c3)ccc1N(C)[C@H]2CO | -2
CO[C@@H]1CN(C)C(=O)c2cc(NC(C)=O)ccc2OC[C@@H](C)N(Cc2ccc(F)cc2)C[C@@H]1C | 2
COC(=O)C[C@H]1CC[C@@H]2[C@@H](COc3ccc(NC(=O)C4CCOCC4)cc3C(=O)N2C)O1 | 5
CC(C)NC(=O)N(C)C[C@@H]1Oc2c(NS(=O)(=O)c3ccccc3)cccc2C(=O)N([C@H](C)CO)C[C@H]1C | -3
CNC(=O)C[C@H]1CC[C@H]2[C@@H](COC[C@H](O)CN2S(=O)(=O)c2ccc(Oc3ccccc3)cc2)O1 | 9

This is a subset. The share of hits here may be higher or lower than overall.
